Bioassay records (PubChem)
motility – Vibrio cholerae motility inhibitors, OD read-out (AID 588778); Vibrio cholerae motility, OD read-out; higher % means a stronger effect; test concentration not given here; primary cut-off and reference of the scale not given here; strong numbers were not always called active; inhibition, %, or IC50 in µg/mL where a hit was titrated; 10,000 tested, under 10 active; in the data active = confirmed in a dose series
motility viability – recorded beside motility, whose call it bears; inhibition, %; measured here: bacterial viability at 10 ug/mL;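 higher means fewer living bacteria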
* = called active by the depositor; i = inactive. A portion of the library (hit frequency here may not be typical).

[1] COc1cccc(CN2CCCC(C(=O)N3CCc4ccccc4C3)C2)c1 (centres undefined)
[2] CCOc1ccccc1NC(=O)NNC(=O)c1cc(Cl)ccc1OC
[3] O=C1CC(Sc2nnc(-c3ccccc3)o2)C(=O)N1c1ccccc1 (centres undefined)
[4] CC(C)COc1ccc(C(=O)N2CCCCCC2)cc1
[5] CCOc1ccc(Br)cc1S(=O)(=O)Nc1ccc(-c2cn3cccnc3n2)cc1
[6] COc1cc(OC)c(NC(=O)CSc2ccccn2)cc1Cl
[7] O=CN(c1ccccc1)c1ccc2ccccc2c1
[8] CS(=O)(=O)N(CC(=O)O)c1ccccc1Br
assay / entry,1,2,3,4,5,6,7,8
motility,15%,2%,59%,3%,-20%,-11%,16%,3%
motility viability,3,-2,12,0,-6,-10,-2,-3

Ordered by number of heavy atoms (highest first): part of the list above.
[1] COc1cccc(CN2CCCC(C(=O)N3CCc4ccccc4C3)C2)c1 (centres undefined)
[2] CCOc1ccccc1NC(=O)NNC(=O)c1cc(Cl)ccc1OC
[4] CC(C)COc1ccc(C(=O)N2CCCCCC2)cc1
assay / entry,1,2,4
motility,15%,2%,3%
motility viability,3,-2,0

Going on with the list:
[9] CCCCNC(=O)C(=O)NCc1cccs1
[10] Cc1cc(Br)c(NC(=O)CNC(=O)Oc2ccccc2)cc1C
[11] COC(=O)C12CCC(C)(C(=O)C1)C2(C)C (centres undefined)
[12] O=S1(=O)CCC(S(=O)(=O)NCc2ccccc2)C1 (centres undefined)
[13] CCSc1cc(C2C(C(=O)OC)=C(C)NC3=C2C(=O)CCC3)c(C)o1 (centres undefined)
[14] CCOC(=O)C1CCN(C(=S)NCCc2ccccc2)CC1
[15] CN1CCN(NC(=O)Nc2ccccc2C(F)(F)F)CC1
[16] CCCc1cc(=O)[nH]c(/N=C(\N)Nc2cc(Cl)ccc2OC)n1
assay / entry,9,10,11,12,13,14,15,16
motility,7%,2%,6%,-22%,-8%,6%,14%,-6%
motility viability,-2,-2,3,-14,-6,6,-1,1

[17] COC(=O)c1cc(Cl)c(NC(=O)COc2ccc(C)cc2Br)cc1OC
[18] O=C(NCc1ccccc1)C(=S)N1CCOCC1
[19] O=C(COc1ccc(NS(=O)(=O)c2ccc3c(c2)Cc2ccccc2-3)cc1)N1CCOCC1
[20] CC(Sc1n[nH]c(=O)n1-c1ccccc1)C(=O)NC(c1ccccc1)c1ccccc1 (centres undefined)
[21] Cc1cc(=O)oc2c1c(C)nn2-c1nn[nH]n1
[22] Clc1ccc(Br)cc1-c1nc(-c2ccccn2)no1
[23] CCOC(=O)c1cnc(SCc2ccc(Cl)cc2)[nH]c1=O
[24] COC(=O)NC12CC3CC(CC(C3)C1)C2
assay / entry,17,18,19,20,21,22,23,24
motility,18%,7%,0%,1%,-6%,1%,21%,i
motility viability,8,1,2,-1,-2,-9,1,-19

[25] Cn1nnc(NC(=O)CSc2nnnn2-c2ccc(C(=O)O)cc2)n1
[26] COc1ccc(OC2C(=O)N(Cc3ccc4c(c3)OCO4)C2c2cccs2)cc1 (centres undefined)
[27] CCOc1ccc(OCC)c2sc(C)nc12
[28] O=S(=O)(Nc1cc(C(F)(F)F)ccc1N1CCCCC1)c1ccccc1
[29] C=CCn1c(NC(C)=O)nc2ccccc21
[30] O=C(O)CCC(=O)NCCC1=CCCCC1
[31] COc1ccc([N+](=O)[O-])cc1NC(=O)c1ccccc1SC
[32] COc1cc2c(cc1NC(=S)NCCc1ccc(OC)c(OC)c1)oc1ccccc12
assay / entry,25,26,27,28,29,30,31,32
motility,2%,10%,7%,9%,8%,0%,-15%,-28%
motility viability,3,3,5,27,10,-1,0,-4

[33] CCCCOc1nc(N2CCOCC2)nc(N2CCOCC2)n1
[34] Cc1c(Cl)cccc1N=CC1=C(O)c2ccccc2C1=O
[35] Cc1ccccc1C(=O)Nc1nnc(SCC(=O)NCC2CCCO2)s1 (centres undefined)
[36] COc1cc(OC)c(C2=NOC(C(=O)Nc3c(F)cc(F)cc3Br)C2)cc1Cl (centres undefined)
[37] COc1ccc(CCNC(=O)C2CC2(c2ccccc2)c2ccccc2)cc1OC (centres undefined)
[38] Cc1ccc2cc3c(nc2c1)N(Cc1ccco1)CC3
[39] CCNC(=S)NCCCn1nc(C(F)(F)F)c(Cl)c1C1CC1
[40] Cc1ccccc1Cn1nc(C)c(NC(=O)c2nc3n(n2)C(C(F)F)CC(C)N3)c1C (centres undefined)
assay / entry,33,34,35,36,37,38,39,40
motility,5%,3%,2%,-4%,28%,3%,45%,-6%
motility viability,7,1,-4,0,16,-1,52,-4

[41] COc1cccc2c(=O)cc(C)n(CC(=O)Nc3ccccc3C)c12
[42] CC(Nc1cc(N2CCN(S(=O)(=O)N(C)C)CC2)ccc1[N+](=O)[O-])c1ccccc1 (centres undefined)
[43] Cc1ccc(NC(=S)NC(=O)C2CCCCC2)cc1Cl
[44] CCN(CC)C(=O)N1CCc2ccccc2C1CN1C(=O)c2ccccc2C1=O (centres undefined)
[45] Cc1cccc(-c2c3c(=O)n(C)c(=O)n(C)c3c3nnc4ccccc4n23)c1
[46] c1ccc2[nH]c(CCn3cncn3)nc2c1
[47] Cn1c(C(Cc2ccccc2)NC(=O)c2cccs2)nc2ccccc21 (centres undefined)
[48] CC12CCC(C(=O)N3CCN(c4ncccn4)CC3)(CC1=O)C2(C)C (centres undefined)
assay / entry,41,42,43,44,45,46,47,48
motility,-15%,-18%,4%,10%,-12%,8%,-9%,12%
motility viability,-2,-16,12,0,-11,5,-4,8

[49] Cc1ccc(S(=O)(=O)NCCSc2nnnn2C)cc1
[50] COc1ccc(CSc2n[nH]c(C)n2)cc1[N+](=O)[O-]
[51] Cn1cc(C2CC(=O)N(c3c(Cl)cccc3Cl)C2=O)c2ccccc21 (centres undefined)
[52] COc1cccc2c(=O)[nH]c(C(Cl)(Cl)Cl)nc12
[53] O=C1c2cccc3cccc(c23)C(=O)N1CCN1CCN(CC(O)COCc2ccc(Cl)cc2)CC1 (centres undefined)
[54] CC(C)(O)C(=O)NNC(=O)NC1CCCCC1
[55] O=C(c1ccc(C(=O)N2CCC(c3ccccc3)CC2)s1)N1CCC(c2ccccc2)CC1
[56] CCOC(=O)c1c(NC(=O)C2(S(=O)(=O)c3ccccc3)CC2)sc(C)c1C
assay / entry,49,50,51,52,53,54,55,56
motility,-2%,10%,0%,14%,13%,6%,0%,-17%
motility viability,-4,0,3,-6,3,1,-5,-11

[57] CC(=O)N(c1ccc(N(C(C)=O)S(=O)(=O)c2cccs2)cc1)S(=O)(=O)c1cccs1
[58] CS(=O)(=O)N(CC(=O)Nc1ccc2c(c1)OCCO2)Cc1ccccc1
[59] O=C(NCCSC1CCCCC1)c1ccccc1I
[60] CC(C)C(=O)Nc1ccc(C(=O)NNC(=O)COc2ccc(Cl)cc2Br)cc1
[61] Cn1ccnc1C(O)(c1ccccc1)c1nccn1C
[62] COc1ccccc1OCCSc1n[nH]c2nc3ccccc3n12
[63] COc1ccc(NCC(=O)n2c3ccccc3c3ccccc32)cc1
[64] O=C(c1cccnc1)N1CCN(c2c(Cl)cccc2[N+](=O)[O-])CC1
assay / entry,57,58,59,60,61,62,63,64
motility,-9%,5%,0%,6%,7%,6%,11%,26%
motility viability,-4,-1,1,3,-1,-8,-1,6

One compound at a time, as listed above. Order of values: motility	motility viability
Entry for `COc1ccc(NCC(=O)n2c3ccccc3c3ccccc32)cc1` = 11%	-1
Entry for `CS(=O)(=O)N(CC(=O)Nc1ccc2c(c1)OCCO2)Cc1ccccc1` = 5%	-1
Entry for `CC(=O)N(c1ccc(N(C(C)=O)S(=O)(=O)c2cccs2)cc1)S(=O)(=O)c1cccs1` = -9%	-4
Entry for `COc1ccccc1OCCSc1n[nH]c2nc3ccccc3n12` = 6%	-8
Entry for `Cn1ccnc1C(O)(c1ccccc1)c1nccn1C` = 7%	-1

Additional entries
[65] CCOc1cc(OCC)cc(C(=O)O)c1
[66] N#Cc1ccccc1NC(=O)c1ccccc1OCC(=O)Nc1ccc2c(c1)oc1ccccc12
[67] CC(C)(C)Sc1nnc(SC(C)(C)C)c2ccccc12
[68] O=C1CC(Cc2ccc(Cl)cc2)C(=O)N1c1ccc(Cl)cn1 (centres undefined)
[69] COc1ccccc1C(CCN)c1ccco1 (centres undefined)
[70] CC(=O)c1ccc(NC(=O)CSc2nnc(-c3ccc4ccccc4n3)s2)cc1
[71] O=C(Cc1ccc(Br)cc1)Nc1ccncc1
[72] O=C(/C=C/c1ccc(F)cc1)Nc1cccc2cccnc12
assay / entry,65,66,67,68,69,70,71,72
motility,8%,8%,-30%,2%,52%,-1%,29%,-9%
motility viability,-2,31,-10,-2,15,-1,4,1

Values by screen from the list:
motility for nos. 65–72: 8%, 8%, -30%, 2%, 52%, -1%, 29%, -9%

The list goes on:
[73] Cc1nn(C(=O)c2ccco2)c(C)c1CN1C(=O)c2ccccc2C1=O
[74] O=C(CCCSc1nnc(-c2ccc(Cl)cc2)o1)c1ccc(F)cc1
[75] O=C(Nc1ccc(Cl)c(Cl)c1)Nc1ncc2c(n1)CC(c1ccco1)CC2=O (centres undefined)
[76] Cc1nc(NCCc2ccccc2)c2sc3nc4c(cc3c2n1)COC(C)(C)C4
[77] CC(=O)c1ccc(NC(=S)N2CCN(C(c3ccccc3)c3ccccc3)CC2)cc1
[78] CS(=O)(=O)Nc1ccc(C(=O)NCc2ccc3c(c2)OCO3)cc1
[79] CCN(Cc1ccncc1)C(=S)Nc1c(C)cccc1C
[80] N#C/C(=C\c1ccc(OC(=O)c2ccco2)cc1)S(=O)(=O)c1ccccc1
assay / entry,73,74,75,76,77,78,79,80
motility,-7%,-32%,12%,-5%,-11%,9%,-4%,2%
motility viability,-5,-6,8,3,-3,-2,-3,-6

[81] FC(F)(F)c1ccccc1NC(=S)NCCn1cc(Cl)cn1
[82] CC1=C(C(=O)OC(C)C)C(c2ccc(-c3ccccc3[N+](=O)[O-])o2)C(C(=O)OC(C)C)=C(C)N1
[83] O=C(Nc1cccc(C(=O)OC2Cc3ccccc3C2=O)c1)c1ccccc1 (centres undefined)
[84] O=C(NCc1ccccc1F)c1cnccn1
[85] O=C(NCCCn1ccnc1)C1CC(c2ccccc2Cl)=NO1 (centres undefined)
[86] c1ccc(N2CCN(C3CCN(Cc4ccco4)CC3)CC2)cc1
[87] Cc1ccc2occ(CC(=O)N(Cc3ccc(C(C)C)cc3)C3CCS(=O)(=O)C3)c2c1 (centres undefined)
[88] CC(C)(C)CC(C)(C)NC(=O)C1CCCO1 (centres undefined)
assay / entry,81,82,83,84,85,86,87,88
motility,1%,-7%,2%,-25%,-11%,9%,0%,-6%
motility viability,18,-7,0,1,-1,-6,10,-1

[89] CC(SCc1ccccc1)C(=O)NC(C(C)C)C(C)C (centres undefined)
[90] O=C(O)c1ccc(NC(=O)c2ccc(Cl)cc2)c(NC(=O)c2ccc(Cl)cc2)c1
[91] O=S(=O)(NC(=S)NC1CCCCC1)c1ccc(Br)cc1
[92] CSc1ccc(-c2nnn(Cc3ccc(Br)cc3)n2)cc1
[93] COc1ccc(-n2nc3cc(C)c(NC(=S)NC(=O)CSc4ccc(Cl)cc4)cc3n2)cc1
[94] COc1ccc(C(=O)c2ccc(N3CCN(C)CC3)c([N+](=O)[O-])c2)c2ccccc12
[95] COc1ccc(-c2[nH]nc3oc(=O)c(CCO)c(C)c23)cc1
[96] COC(=O)c1ccc(-n2ncnc2-c2ccc(Br)cc2)cc1
assay / entry,89,90,91,92,93,94,95,96
motility,-6%,-8%,-5%,-4%,-1%,-2%,5%,6%
motility viability,-4,-2,-8,-7,-4,3,1,1

[97] O=C(Cc1ccccc1Cl)c1ccc(O)c(O)c1O
[98] COc1ccc(C(=O)N2CCCC2(C#N)c2ccccc2)cc1[N+](=O)[O-] (centres undefined)
[99] CCOC(=O)C1CCCN1C(=O)c1ccc(OC)c(I)c1 (centres undefined)
[100] Nc1nc(-c2cccs2)c(-c2cccc3ccccc23)s1
assay / entry,97,98,99,100
motility,13%,-4%,3%,4%
motility viability,3,0,3,-2
